RE007 growth inh = qHTS Assay for Inhibitors of the HIV-1 protein Vpr; S. pombe RE007 Vpr strain, BacTiter-Glo ATP luminescence, 24 h; control for the full effect not named in the record; Potency, µM (highest dose often 92.2 µM), for inactives: top-dose activity change, negative = less growth; 360,000 tested, 0.21% active; active = well fitted falling curve with a large enough effect; inconclusive = small, poorly fitted or top-dose-only effect; inactive = no such curve, though single readings can be large or run the other way;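 also: % is scaled to controls: 0 for no effect and ±100 for the full control effect; nearly all actives have a fitted effect of over 50% in size; the assay follows cell death caused by Vpr and the record does not say whether a fall means rescue or toxicity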
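Fission yeast strain RE007, carrying one chromosomally integrated HIV-1 vpr copy, was seeded at OD 0.01 in PMG+AL medium with 23 nL pinned compound. After 24 h at 30 °C and 99% humidity, viability was read by BacTiter-Glo luminescence.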
Marburg entry inh = qHTS for inhibitors of binding or entry into cells for Marburg Virus; Potency, µM (doses to about 37.8 µM), without a hit: at the top dose activity change, negative = inhibition, usual class: inhibitors; 300,000 tested, 1.8% active; Marburg virus pseudotyped entry inhibition, cell reporter; control for the full effect not named in the record; about a third of the inactives were read at about 46 µM; active = well fitted inhibition curve with a large enough effect; inconclusive = small, poorly fitted or top-dose-only effect, or effect the other way; inactive = flat fitted curve, though single readings scatter; tested in HEK293 cells; about a fifth of its hits are not listed in these tables; also: % is scaled to controls: 0 for no effect and ±100 for the full control effect; luciferase read-out
NS1 inh = qHTS Assay for Inhibitors of Influenza NS1 Protein Function; S. cerevisiae slowed by influenza A NS1, growth recovery by OD600; Potency, µM (top dose mostly 46.1 µM), for inactives: at the top dose activity, positive = more growth; 270,000 tested, 0.4% active; AID 2326, 2010; active means well fitted rising curve with a large enough effect; inconclusive means small, poorly fitted or top-dose-only effect; inactive means no such curve, though single readings can be large or run the other way; also: nearly all actives have a fitted effect of over 50% in size
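S. cerevisiae expressing influenza A NS1, grown in glucose, washed, then diluted 1:100 into pH 6.0 -URA galactose medium with 23 nl compound. Growth recovery read as OD600; NS1-free strain serves as control.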
Cruzain Triton = qHTS Assay for Promiscuous and Specific Inhibitors of Cruzain (with detergent); 200,000 tested, 0.43% active; Potency, µM, inactives show max response, negative = inhibition, actives largely listed as inhibitors; Cruzipain (Trypanosoma cruzi), P25779; purified cruzain, Z-FR-AMC fluorescence, 0.01% Triton;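 also: plate controls were neutral wells for no effect and buffer without enzyme for full effect; nearly all actives have a fitted effect of over 40% in size; top concentration of the series not given in the record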
Target sequence (P25779 123-467 limits assumed): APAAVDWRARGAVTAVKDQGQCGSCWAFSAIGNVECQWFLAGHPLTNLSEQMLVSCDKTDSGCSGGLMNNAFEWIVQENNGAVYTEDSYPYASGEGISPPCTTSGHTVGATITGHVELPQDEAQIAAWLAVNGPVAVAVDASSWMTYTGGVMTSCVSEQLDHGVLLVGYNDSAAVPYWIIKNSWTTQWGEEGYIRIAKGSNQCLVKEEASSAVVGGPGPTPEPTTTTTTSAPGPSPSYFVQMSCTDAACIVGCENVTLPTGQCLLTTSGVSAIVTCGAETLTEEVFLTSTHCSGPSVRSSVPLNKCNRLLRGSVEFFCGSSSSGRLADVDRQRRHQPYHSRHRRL
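Read-out: AMC fluorescence (360 nm excitation, 450 nm emission), four reads over 2 min, first-to-third difference used. Conditions: cruzain 1.5 nM, Z-FR-AMC 2 uM, pH 5.5 acetate, 5 mM DTT, 0.01% Triton X-100.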
SARS PLP yeast = qHTS of Yeast-based Assay for SARS-CoV PLP. S. cerevisiae expressing SARS-CoV PLpro, growth rescue; control for the full effect not named in the record. Potency, µM (titrated, usually from 32.9 µM), for inactives: top-dose activity, positive = growth rescue. 330,000 tested, 0.19% active; active means well fitted rising curve with a large enough effect; inconclusive means small, poorly fitted or top-dose-only effect; inactive means no such curve, though single readings can be large or run the other way; also: 0% is about no effect; nearly all actives have a fitted effect of over 55% in size; growth read by luminescence after 48 h
Cruzain noTriton = qHTS Assay for Promiscuous and Specific Inhibitors of Cruzain (without detergent). Potency, µM, for inactives: max response, negative = inhibition, hits mostly inhibitors. 200,000 tested, 2.3% active. Cruzipain (Trypanosoma cruzi), P25779. purified cruzain, Z-FR-AMC fluorescence, no detergent;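 also: plate controls were enzyme without inhibitor for no effect and buffer without enzyme for full effect; nearly all actives have a fitted effect of over 40% in size; top concentration of the series not given in the record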
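Purified cruzain at 1.5 nM, pre-incubated 15 min with compound at room temperature in 100 mM sodium acetate pH 5.5, 5 mM DTT, 0.00005% Triton X-100. Reaction started with 2 uM Z-FR-AMC; AMC fluorescence increase over 60 s gives rate.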
2A StopGo = High Throughput Screening for Foot and Mouth Disease Virus Antivirals. human cells with a luciferase reporter of 2A StopGo recoding; control for the full effect not named in the record. Potency, µM (titrated, usually from 57.9 µM), for inactives: at the highest dose signal change, negative = less light. 410,000 tested, 1.2% active; active = well fitted falling curve with a large enough effect; inconclusive = small, poorly fitted or top-dose-only effect; inactive = no such curve, though single readings can be large or run the other way; tested in HEK293T cells; also: % is scaled to controls: 0 for no effect and ±100 for the full control effect; nearly all actives have a fitted effect of over 45% in size; luciferase light after 4 h
Lassa entry inh = qHTS for Inhibitors of binding or entry into cells for Lassa Virus; Lassa virus pseudotype entry inhibition, cell reporter; control for the full effect not named in the record; 300,000 tested, 1.2% active; Potency, µM (titrated, usually from 37.9 µM), without a hit: at the highest dose activity change, negative = inhibition, most hits filed as inhibitors; active means well fitted inhibition curve with a large enough effect; inconclusive means small, poorly fitted or top-dose-only effect, or effect the other way; inactive means flat fitted curve, though single readings scatter; tested in HEK293 cells; also: % is scaled to controls: 0 for no effect and ±100 for the full control effect; nearly all actives have a fitted effect of over 50% in size; luciferase read-out
The depositor's hits bear a star; & = joins results of further samples; [ ] = dose if it differs, or a comment. Unless noted, calls follow the shape of the dose curve; as a rule, active = well fitted curve in the direction sought with a large enough effect; inconclusive = small, poorly fitted or top-dose-only effect, or another doubt; inactive = no such curve, though single readings can be large; an effect the other way counts as inactive or inconclusive. Potency is read from the fitted curve at half-maximal effect.

Screening CCC(=O)N1c2ccc(S(=O)(=O)CCC(=O)Nc3ccc(Br)c(C)c3)cc2CC1C (stereo not drawn) returned Marburg entry inh 3%[46.1 µM], Cruzain Triton -6.5%, Cruzain noTriton -2%, 2A StopGo 0% and Lassa entry inh -19%[46.1 µM].
Screening Cc1cccc(C)c1N(CC(=O)NCc1ccco1)C(=O)CNS(=O)(=O)c1ccc(F)cc1 returned RE007 growth inh 3%, Marburg entry inh 8.9µM*, NS1 inh 2%, SARS PLP yeast 0%, 2A StopGo 25% and Lassa entry inh -29%.
Screening N#C/C(=C\c1cccs1)C(=O)NCc1ccco1 returned RE007 growth inh -8%, Marburg entry inh 6%, NS1 inh -4%, Cruzain Triton -6.0%, SARS PLP yeast -19%, Cruzain noTriton 4%, 2A StopGo 67%[activator] and Lassa entry inh inconclusive.
`O=C(Nc1ccc(S(=O)(=O)N2CCCCC2)cc1)C1CC(=O)N(c2ccccc2)C1` (stereo not drawn) gave RE007 growth inh 8%, Marburg entry inh -4%[46.1 µM], NS1 inh -11%, SARS PLP yeast 3% and 2A StopGo -14%.
CN(C)C=Nc1ccc(Cl)c(Cl)c1 was read as RE007 growth inh 3%, Marburg entry inh 2%[46.1 µM], NS1 inh 4%, SARS PLP yeast 1%, 2A StopGo 6% and Lassa entry inh -13%[46.1 µM].
COc1c(C)cc(C(=O)C2CCCN(S(=O)(=O)c3c(C)noc3C)C2)cc1C (stereo not drawn) was read as RE007 growth inh -6%, Marburg entry inh inconclusive, NS1 inh -9%, SARS PLP yeast 1%, 2A StopGo inconclusive and Lassa entry inh inconclusive.
Screening CCN(CC)c1ccc(C2NCC(c3ccc([N+](=O)[O-])cc3)O2)cc1 (stereo not drawn) returned RE007 growth inh -4%, Marburg entry inh inconclusive, NS1 inh -16%, Cruzain Triton -10%, SARS PLP yeast -10%, Cruzain noTriton -1% and Lassa entry inh 0%.
For CCc1cccc(C)c1NC(=O)c1cccc(N(C)C)c1 the results were RE007 growth inh 0%, Marburg entry inh inconclusive, NS1 inh 9%, Cruzain Triton 1.7%, SARS PLP yeast -10%, Cruzain noTriton -7%, 2A StopGo -18% and Lassa entry inh -7%.
CCCCNC(=S)NNC(=O)c1cc(C2CC2)nc2ccccc12 was read as RE007 growth inh 10%, Marburg entry inh 11%, NS1 inh -5%, SARS PLP yeast 5%, 2A StopGo 23% and Lassa entry inh 6%.
`O=C(c1ccc(Cl)cc1)c1c[nH]cc1-c1ccccc1` gave RE007 growth inh -6%, Marburg entry inh -8%, NS1 inh 9%, Cruzain Triton -0.1%, SARS PLP yeast 19%, Cruzain noTriton inconclusive, 2A StopGo -1% and Lassa entry inh -1%.
`COc1ccc(-c2noc(-c3ccccc3C(=O)N3CCOCC3)n2)cc1` gave RE007 growth inh 6%, Marburg entry inh -17%, NS1 inh -12%, Cruzain Triton -3.5%, SARS PLP yeast 5%, Cruzain noTriton 6%, 2A StopGo -7% and Lassa entry inh 2%.
For Cc1cccc2c1-c1sc(C(=O)N3CCN(c4ccccc4)CC3)cc1CO2 the results were Marburg entry inh 1%[46.1 µM], Cruzain Triton -5.7%, Cruzain noTriton -30% and 2A StopGo -11%.
For C=CCC1(CC=C)CCCN1C(=O)Cn1nnnc1CN(C)C(C)C the results were RE007 growth inh 7%, NS1 inh -15%, SARS PLP yeast 11% and 2A StopGo -12%.
For CCCCNCC(=O)Nc1ccc(NC(=O)CNCCCC)cc1 the results were RE007 growth inh -30%, Marburg entry inh 10µM*, NS1 inh 18%, Cruzain Triton 1.4%, SARS PLP yeast 6%, Cruzain noTriton 6%, 2A StopGo -13% and Lassa entry inh -17%.
`CCCCn1cnc2c(cnn2-c2ccc(F)cc2)c1=O` gave RE007 growth inh -13%, Marburg entry inh inconclusive, NS1 inh -1%, Cruzain Triton 4.5%, SARS PLP yeast 2%, Cruzain noTriton 0%, 2A StopGo 16% and Lassa entry inh -16%.
Screening CCOc1ccc(-n2c(SCc3ccc(C#N)cc3)nnc2-c2cccnc2)cc1 returned RE007 growth inh 20%, Marburg entry inh -10%&-10%, NS1 inh 6%, Cruzain Triton -2.7%, SARS PLP yeast 3%, Cruzain noTriton 21%, 2A StopGo -24% and Lassa entry inh -6%.
Cc1nnc(SCC(=O)Nc2ncc(Cl)cc2Cl)n1Cc1ccccc1 was read as RE007 growth inh 13%, Marburg entry inh -9%, NS1 inh 13%, Cruzain Triton -1.2%, SARS PLP yeast 15%, Cruzain noTriton 5%, 2A StopGo -19% and Lassa entry inh -6%.
Screening O=C(Nc1ccc(-c2nc3cc(Cl)ccc3o2)cc1)c1cc(Br)ccc1Cl returned Cruzain Triton 1.0%, Cruzain noTriton 10%, 2A StopGo 5% and Lassa entry inh -8%[46.1 µM].
CCc1n[nH]c2c1/C(=N/O)CCC2 was read as RE007 growth inh 9%, Marburg entry inh -10%, NS1 inh 5%, Cruzain Triton 2.9%, SARS PLP yeast 5%, Cruzain noTriton -15%, 2A StopGo -15% and Lassa entry inh 1%.
For O=C(COc1ccccc1Cl)Nc1ccc(N2CCCC2)cc1 the results were RE007 growth inh 16%, NS1 inh -5%, SARS PLP yeast -1% and 2A StopGo -13%.
`O=C(Nc1nnc(CCc2ccccc2)s1)c1cccc(F)c1` gave RE007 growth inh 3%, NS1 inh -30%, SARS PLP yeast 12% and 2A StopGo 59%[activator].
`CC1CCCC(NC(=O)c2ccc(F)c(S(=O)(=O)N3CCOCC3)c2)C1C` (stereo not drawn) gave RE007 growth inh -13%, Marburg entry inh inconclusive, SARS PLP yeast 0%, 2A StopGo 4% and Lassa entry inh 6%.
Cc1ccc(S(=O)(=O)C(CCC(=O)c2ccc(Cl)cc2)C(N)=O)cc1 (stereo not drawn) was read as RE007 growth inh -16%[3.69 µM], Marburg entry inh -5%, NS1 inh -9%, Cruzain Triton -2.0%, SARS PLP yeast -7%, Cruzain noTriton 3%, 2A StopGo -15% and Lassa entry inh 11%.
S=C(Nc1ccccc1)N1CCC(C2CCN(C(=S)Nc3ccccc3)CC2)CC1 was read as RE007 growth inh 19%, Marburg entry inh 2%, NS1 inh 0%, SARS PLP yeast -1%, 2A StopGo -10% and Lassa entry inh 37%.
O=C(CN1C(=O)NC2(CCCC2)C1=O)Nc1ccccc1-c1ccccc1 was read as RE007 growth inh 0%, Marburg entry inh inconclusive, NS1 inh -6%, SARS PLP yeast -1%, 2A StopGo -1% and Lassa entry inh -3%[46.1 µM].
For CCCn1nnc(NC(=O)c2ccc(-c3ccccc3)cc2)n1 the results were RE007 growth inh 12%, Marburg entry inh -9%, NS1 inh -31%, Cruzain Triton -5.6%, SARS PLP yeast 2%, Cruzain noTriton 6% and Lassa entry inh -1%.
`Cc1cc(C)nc(NS(=O)(=O)c2ccc(NC(=O)c3ccccc3[N+](=O)[O-])cc2)n1` gave RE007 growth inh -11%, NS1 inh -6%, SARS PLP yeast 1% and 2A StopGo 18%.
`CCOC(=O)c1ccc(CSc2nnc(N)s2)cc1` gave RE007 growth inh -2%, Marburg entry inh -21%, NS1 inh -13%, Cruzain Triton -2.9%, SARS PLP yeast -3%, Cruzain noTriton 5%, 2A StopGo 15% and Lassa entry inh -27%.
Cc1ccc2c(CC(=O)OCc3csc(C)n3)coc2c1 was read as RE007 growth inh -15%, Marburg entry inh 28%, NS1 inh -8%, Cruzain Triton -1.9%, SARS PLP yeast 3%, Cruzain noTriton 4%, 2A StopGo 15% and Lassa entry inh 5%.
For CCC1CCCCN1CCCNC(=O)Cn1nc(-c2ccccc2)ccc1=O (stereo not drawn) the results were RE007 growth inh 1%, Marburg entry inh -2%, NS1 inh -10%, Cruzain Triton -4.5%, SARS PLP yeast 0%, Cruzain noTriton -6% and Lassa entry inh 3%.
For CCOC(=O)CCN(c1ccccc1)S(=O)(=O)c1cc(-c2cc(C)no2)ccc1C the results were Cruzain Triton -0.9%, Cruzain noTriton inconclusive, 2A StopGo -11% and Lassa entry inh -30%[46.1 µM].
For O=C(O)CSc1c2c(nc3cc(C(=O)N4CCCC4)ccc13)CCCC2 the results were RE007 growth inh 9%, Marburg entry inh 6%[46.1 µM], SARS PLP yeast 2%, 2A StopGo -4% and Lassa entry inh 0%[46.1 µM].
`Cc1cc(-c2nc3cccnc3s2)ccc1NS(=O)(=O)c1cccs1` gave RE007 growth inh 7%, NS1 inh 19%, SARS PLP yeast -1% and 2A StopGo 62%[activator].
For Cc1cc(NCCCn2ccnc2)n2nc(-c3ccc(F)cc3)cc2n1 the results were RE007 growth inh -10%, Marburg entry inh 1%, NS1 inh 0%, Cruzain Triton 5.4%, SARS PLP yeast 4%, Cruzain noTriton -5% and Lassa entry inh inconclusive.
Screening CCNc1nc(-c2ccc(Cl)cc2)cs1 returned RE007 growth inh -16%, Marburg entry inh inconclusive, NS1 inh -15%, Cruzain Triton -5.9%, SARS PLP yeast 1%, Cruzain noTriton 1%, 2A StopGo 10% and Lassa entry inh inconclusive.
`Cc1cccc(NC(=O)CSc2nnc(CCNC(=O)OC(C)(C)C)o2)c1C` gave RE007 growth inh -5%, NS1 inh 4%, SARS PLP yeast 0% and 2A StopGo -14%.
Cc1sc2nc(CN3CCOCC3)nc(Oc3ccc(NC(=O)c4ccco4)cc3)c2c1C was read as RE007 growth inh -4%, Marburg entry inh 0%&-11%, NS1 inh -36%, Cruzain Triton -4.1%, SARS PLP yeast -6%&-3%, Cruzain noTriton inconclusive, 2A StopGo -2% and Lassa entry inh -10%.
For CN(Cc1ccccc1)C(=O)C(=O)Nc1ccc2nc3n(c(=O)c2c1)CCCCC3 the results were Marburg entry inh 4%[46.1 µM], Cruzain Triton -4.1%, Cruzain noTriton 16%, 2A StopGo 13% and Lassa entry inh -18%[46.1 µM].
For Cc1nc2cc(-c3ccccc3)nn2c(C)c1CCC(=O)NCCc1ccccc1 the results were Marburg entry inh 7%[46.1 µM], Cruzain Triton -4.7%, Cruzain noTriton inconclusive, 2A StopGo -14% and Lassa entry inh -3%[46.1 µM].

Assay outcomes from PubChem.
